AID923 = qHTS Assay for Allosteric/Competitive Inhibitors of Caspase-1: Spectroscopic Profiling in AFC Spectral Region; 1.1% of 75,000 active; compound fluorescence, AFC spectral region (405/520 nm); almost no hit is shown here; Potency, µM (top dose mostly 57.5 µM), without a hit: at the top dose fluorescence increase, hits mostly activators; active means well fitted activation curve with a large enough effect; inconclusive means small, poorly fitted or top-dose-only effect;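 further: potency means the concentration at half of the fitted maximal effect; 0% is about no effect; scaled to a free AFC standard on each plate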
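Compound autofluorescence profiled at 405 nm ex/520 nm em during kinetic caspase 1 run (50 nM enzyme, 5 uM Ac-WEHD-AFC, HEPES pH 7.5, 10 mM DTT). Titration up to 57 uM; baseline from regression intercept, normalized to AFC standard curve.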
A488 autofl = compound autofluorescence in A488 spectral region | compound autofluorescence, A488 spectral region, dye equivalency; hits give high values | max dye equivalency, M | 0.1% of 59,000 active | AID 591; active = above 10 nM dye equivalent; inconclusive = 1 to 10 nM; inactive = 1 nM or less; about half of its hits are not listed in these tables;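 further: highest value over a series up to 38 µM; compound alone in buffer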
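Compounds pin-transferred into 100 mM Tris buffer, pH 8.0, incubated 15 min at room temperature, then imaged with 480 nm excitation/540 nm emission filters. Fluorescence converted to Alexa 488 dye-equivalent concentration via an on-plate six-point A488 standard curve.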
A647 fluor = compound autofluorescence in A647 spectral region; max dye-equivalent concentration, M; Compound fluorescence, A647 channel (570/671 nm), Tris buffer; 59,000 tested, under 10 active; active means above 1 µM dye equivalent; inconclusive means 0.1 to 1 µM; inactive means 0.1 µM or less;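 further: values scaled relative to a standard on each plate; highest value over a series up to 38 µM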
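Buffer was dispensed, compounds and Alexa 647 standards were pin-transferred, and plates sat 15 min at room temperature. Intensity at 570/671 nm was then converted to dye-equivalent concentration using the plate's A647 standard curve.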
TSHR ag = activates the human thyroid stimulating hormone receptor; Potency, µM (highest dose often 57.1 µM), for the others: at the highest dose activation, hits mostly activators; AID 926; P16473; HEK293-CNG-TSHR cells (CNG channel as cAMP sensor), membrane potential dye, cAMP; 0.48% of 73,000 active; active = well fitted activation curve of enough size with the parental cells flat; inconclusive = any curve in the parental cells; inactive = parental cells flat and receptor cells flat or falling; further: potency means the concentration at half of the fitted maximal effect; % of control where 0% means no effect; weak receptor curves with flat parental cells got no call and are not listed
Target sequence (P16473 whole entry, looked up): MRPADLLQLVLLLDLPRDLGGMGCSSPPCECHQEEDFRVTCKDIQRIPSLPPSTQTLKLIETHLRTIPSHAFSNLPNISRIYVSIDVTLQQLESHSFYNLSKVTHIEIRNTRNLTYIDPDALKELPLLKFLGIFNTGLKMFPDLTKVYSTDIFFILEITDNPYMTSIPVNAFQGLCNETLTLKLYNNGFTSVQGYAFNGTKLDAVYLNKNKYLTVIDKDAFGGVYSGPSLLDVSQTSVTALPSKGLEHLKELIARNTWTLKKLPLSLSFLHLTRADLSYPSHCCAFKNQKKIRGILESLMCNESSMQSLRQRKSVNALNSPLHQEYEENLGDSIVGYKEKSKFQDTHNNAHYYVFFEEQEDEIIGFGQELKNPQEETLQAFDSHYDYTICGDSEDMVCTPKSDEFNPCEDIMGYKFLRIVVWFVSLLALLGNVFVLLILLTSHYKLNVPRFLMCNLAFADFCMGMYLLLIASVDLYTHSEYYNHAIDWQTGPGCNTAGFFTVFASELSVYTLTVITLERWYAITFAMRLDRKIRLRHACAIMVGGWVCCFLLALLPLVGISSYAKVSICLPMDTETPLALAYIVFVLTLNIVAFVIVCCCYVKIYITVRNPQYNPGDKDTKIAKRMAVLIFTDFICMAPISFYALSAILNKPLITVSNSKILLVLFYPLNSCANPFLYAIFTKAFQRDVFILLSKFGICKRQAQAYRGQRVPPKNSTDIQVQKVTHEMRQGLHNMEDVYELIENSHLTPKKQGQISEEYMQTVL
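HEK 293 cells stably expressing TSHR and a modified CNG channel, with CNG-only parental cells as counterscreen, were preloaded 60 min at room temperature with membrane potential dye containing 100 uM RO 20-1724. Compound exposure was 30 min, and depolarization was read as fluorescence at 590 nm.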
Resorufin fluor = compound fluoresces in the resorufin spectral region | max dye-equivalent concentration, M | AID 588 | 0.04% of 59,000 active | Compound fluorescence, resorufin region 547/598 nm, buffer; hits give high values; active = above 10 nM dye equivalent; inconclusive = 1 to 10 nM; inactive = 1 nM or less; a few of its hits are not listed in these tables; further: highest value over a series up to 38 µM
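Intrinsic fluorescence profiled in the resorufin window (ex 547 nm, em 598 nm) after 15 min at room temperature in pH 8.0 Tris buffer (100 mM); responses normalized against a six-point resorufin standard series as dye-equivalent concentration.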
* marks the source's active call; other numbers are inactive results; i = inactive; ? = inconclusive; . = not tested or not shown; & = joins results of further samples; [ ] = dose if it differs, or a comment. These rows are one share of the data (hit frequency here may not be typical).

Second line of a record – AID923, A488 autofl, A647 fluor, TSHR ag, Resorufin fluor
CCCS(=O)(=O)N1CCN(CCCc2ccccc2)CC1
 : 0.6%, i, 1.21e-08, -2.1%, i
O=S(=O)(N1CCCCC1)N1CCN(c2ccc(F)cc2)CC1
 : 1.4%, i, 4.58e-08, 4.7%, i
CCCOc1cccc(NC(=O)c2cc(C)oc2C)c1
 : -2.0%, ., ., 13.9%[11.4 µM], .
O=C(CCCNS(=O)(=O)c1cccc2nsnc12)NCc1ccc(Cl)cc1
 : 0.4%, i, 1.01e-08, -9.7%, i
O=C1NC2=C(C(=O)c3ccccc32)C(c2ccccc2)N1 (stereo not given)
 : 1.0%, i, 2.16e-08, -12.3%, i
CC(C)NC[C@H](O)c1ccc2ccccc2c1
 : -2.9%, i, 6e-09, ?, i
N#Cc1ccccc1NC(=O)CSc1nccn1CCc1ccccc1
 : 0.5%, i, 1e-09, 3.8%, i
CC(C)(C)C(=O)CCN1C(=O)C2(OCCO2)c2ccccc21
 : 1.0%, i, 3.16e-08, 4.4%, i
C=CCNc1ncnc2c1cnn2-c1ccc(OC)cc1
 : 3.2%, ., ., 1.0%, .
O=C(CN1C(=O)COc2ccccc21)NCc1ccc(C(=O)O)cc1
 : -1.0%, i, 1e-09, 5.6%[11.4 µM], i
NC(=O)C1(N2CCCCC2)CCN(C2CC(=O)N(Cc3cccs3)C2=O)CC1 (stereo not given)
 : -1.8%, i, 1e-09, 2.4%, i
CCN(CC)C(=O)C1CCN(Cc2cccc(OCc3ccccc3)c2)CC1
 : -0.2%, i, 3.61e-08, ?, i
N#C/C(=C\N1CCN(Cc2ccc3c(c2)OCO3)CC1)c1nc2ccccc2s1
 : ., i, 2.15e-08, ., i
CC(C)N(Cc1nc(-c2ccccc2)no1)C(=O)CN(C)S(=O)(=O)c1ccccc1
 : -1.2%, i, 3.1e-09, 0.1%, i
O=C(CCn1nc(-c2ccccc2)ccc1=O)N1CCCC1
 : -0.6%, i, 4.13e-08, 1.5%, i
CCOc1ccccc1Nc1ccc(C(=O)O)cc1NC(C)=O
 : -0.5%, i, 2.55e-08, 1.9%[11.4 µM], i
c1ccc(-c2csc(-n3cnnn3)n2)cc1
 : -0.1%, i, 2.25e-08, 21.7%, i
Cc1nnsc1C(=O)Nc1ccccc1Cl
 : -0.4%, i, 1e-09, 5.2%, i
N#Cc1nc(COc2ccc(-c3ccccc3)cc2)oc1NCCCN1CCOCC1
 : 0.5%, i, 4.5e-09, 16.5%, i
c1ccc(-n2ncc3c(NCCCN4CCOCC4)ncnc32)cc1
 : -1.6%, ., ., -5.0%, .
CC(=O)Nc1ccc(S(=O)(=O)N2CCN(c3cc(C)ccc3C)CC2)cc1
 : -2.5%, ., ., ?, .
Cc1nn(-c2ccccc2)c(C)c1NC(=O)Cc1cccs1
 : -0.2%, ., ., 5.8%, .
CC(=O)N1CC2(C)CN(C(C)=O)CC(C)(C1)C2
 : -1.3%, i, 2.92e-08, -2.4%, i
O=C(Nc1ccc(N2CCOCC2)c(Cl)c1)c1ccco1
 : -2.0%, i, 2.7e-09, 0.4%, i
O=C(CCn1c(=O)c2ccccc2n(Cc2cc(=O)n3ccccc3n2)c1=O)NCc1ccco1
 : -0.2%, i, 3.16e-08, -3.3%, i
COCCn1c(=O)c(C)nc2cnc(Oc3cccc(Cl)c3)nc21
 : 6.3%, i, 1e-09, ?, i
CCc1c(C)nc2cc(-c3ccc(OC)c(OC)c3)nn2c1N1CCCC1
 : 1.0%, i, 4.01e-08, ?, i
O=C(NCc1ccc2c(c1)OCO2)c1c(O)c2cccc3c2n(c1=O)CCC3
 : -0.4%, i, 3.05e-08, ?, i
CC(=O)Nc1ccc(S(=O)(=O)n2cnc3cc(C)c(C)cc32)cc1
 : 4.7%, ., ., 7.5%, .
COC(=O)N1CCC2(CC1)CN(C(=O)Nc1cccc(C#N)c1)C2
 : -1.1%, i, 3e-08, 2.1%, i
N#CCc1c(C#N)c(N)nc(N2CCN(S(=O)(=O)c3ccccc3)CC2)c1C#N
 : 3.1%, i, 1e-09, 7.3%, i
Cc1cc(C)cc([N+](=O)[O-])c1
 : -1.3%, ., ., ?, .
CN1CCC2(CC1)C1CN(C)CC=C1C(C#N)=C(N)C2(C#N)C#N (stereo not given)
 : ., ?, 2.1e-09, ., i
COC(=O)c1c(N2C(=O)CCC2=O)sc2c1CCCC2
 : -0.5%, ., ., -7.9%, .
CCOC(=O)c1cnn(-c2ccccc2)c1NC(=O)c1cccs1
 : 0.0%, ., ., 14.6%, .
C[C@H](NC(=O)NCc1cccs1)C(=O)O
 : -0.9%, i, 1e-09, 1.0%, i
CC(=O)c1cc(OC(=O)c2ccncc2)ccc1OC(=O)c1ccncc1
 : 2.3%, i, 1.75e-08, 0.0%, i
O=C(NCCCNC(=O)C(F)(F)C(F)F)C(F)(F)C(F)F
 : -1.0%, i, 6.4e-09, -0.2%, i
O=c1[nH]cnc2scc(-c3ccc(F)cc3)c12
 : 2.9%, i, 1e-09, -5.2%, i
CCc1cc(C(=O)OC)c(NC(=O)CCC(=O)O)s1
 : -0.2%, i, 2.9e-09, ., i
CC(NC(=O)c1ccco1)c1ccc2c(c1)OCCO2 (stereo not given)
 : -0.7%, i, 3.86e-08, 4.0%, i
COCCN1Cc2cccc(C(=O)Nc3cc(C)cc(C)c3)c2C1=O
 : -0.3%, i, 1.78e-08, 11.1%, i
COCC(=O)N1CCC[C@@]2(CCN(C(c3ccccc3)c3ccccc3)C2)C1
 : 2.1%, i, 1.3e-08, ?, i
Cc1cc2c(=O)[nH]c(N)nc2nc1C
 : 3.8%[11.5 µM], i, 1e-09, -1.2%[11.4 µM], i
CCCCCCC1Cc2cc(OC)c(OC)cc2C(C(C(=O)OCC)C(=O)OCC)O1 (stereo not given)
 : -0.9%&-0.8%[11.5 µM], ., ., -1.3%&12.5%[11.4 µM], .
CCOC(=O)CSc1nnc2c(n1)C1(C)CCC2C1(C)C (stereo not given)
 : 0.0%, i, 3.67e-08, -1.0%, i
Cc1ccccc1-c1nc(CN2CCC(C(=O)N3CCC(C(N)=O)CC3)CC2)c(C)o1
 : 1.3%, ., ., -2.4%, .
CN(C)c1ccccc1C(=O)c1ccccc1N(C)C
 : 5.9%, i, 8.1e-09, ?, i
O=C(c1cc(S(=O)(=O)N2CCOCC2)ccc1F)N1CCCc2ccccc21
 : -3.0%, i, 6e-09, 2.8%, i
O=C(CSc1nnc(-c2ccncc2)n1C1CCCCC1)Nc1cccc(O)c1
 : 0.0%, i, 3.68e-08, 2.3%, i

Further structures:
Second line of a record – AID923, A488 autofl, A647 fluor, TSHR ag, Resorufin fluor
CCC(Sc1ccc2nnc(-c3cccnc3)n2n1)C(=O)O (stereo not given)
 : -2.5%, ., ., 3.9%, .
CCCCC(=O)Nc1cccc(-c2nnc(-c3ccccc3)o2)c1
 : -0.8%, i, 1.5e-08, ., i
CC(C)CCNC(=O)COc1ccc2c3c(c(=O)oc2c1)CCC3
 : -1.9%, i, 1.37e-08, 8.9%, i
O=C(c1ccccc1)N1CCN(S(=O)(=O)N2CCCCC2)CC1
 : 0.7%, i, 2.1e-09, 0.6%, i
Cc1ccc(-c2nc(CS(=O)CC(=O)NCc3ccccc3)c(C)o2)cc1 (stereo not given)
 : -2.8%, ., ., 2.8%, .
COc1c(O)ccc2cnn(-c3ccccc3C)c(=O)c12
 : ., i, 7.26e-08, ., i
O=C(CCNC(=O)c1ccc(Br)o1)NC1CCCC1
 : -1.0%, i, 6.1e-09, 8.2%, i
COc1ccc(CNc2ncncc2-c2ccc(C(=O)N(C)C)cc2)c(OC)c1
 : -0.3%, i, 1e-09, 15.2%, i
CCCn1cc(SCC(N)=O)c2ccccc21
 : 3.0%, ., ., 4.4%, .
COc1cc2ncnc(Nc3cccc(Br)c3)c2cc1OC
 : -3.5%, ., ., ?, .
CC(C)(C)NC(=O)Cn1nnnc1-c1nonc1N
 : 2.0%, i, 6.11e-08, 3.3%, i
Cc1scc(C(=O)N2CCN(S(C)(=O)=O)CC2)c1-c1ccccc1
 : 1.5%, i, 2.97e-08, 6.7%, i
CC(C)CCNc1nc2c(cc1C#N)COC(C)(C)C2
 : ., i, 6.77e-08, ., i
CCCCCCS(=O)[C@H]1CS(=O)(=O)C[C@@H]1S(=O)CCCCCC (stereo not given in full)
 : -3.0%, i, 4.8e-09, -8.2%, i
C1CCC(Nc2nnnn2C2CCCCC2)CC1
 : 0.4%, ., ., ?, .
COc1ccc(N(CC(=O)NCc2ccco2)S(C)(=O)=O)cc1Cl
 : -0.6%, ., ., 8.0%, .
CN(CP(=O)(O)CN(C)S(C)(=O)=O)S(C)(=O)=O
 : 0.9%, i, 1.35e-08, -0.7%, i
CCOC(=O)CSc1nnc(-c2ccc(S(=O)(=O)N3CCOCC3)cc2)n1-c1ccccc1
 : -0.4%, i, 1e-09, 5.9%, i
COC(=O)c1nnn(-c2nonc2N)c1CSCCO
 : 1.8%, i, 7.2e-09, -2.7%, i
CN(C)c1ccc(NC(=O)CN2C(=O)CC(c3ccccc3)=Nc3ccccc32)cc1
 : -0.8%, i, 1.7e-09, 0.7%, i
CCOc1ccc(OCCSc2nnnn2C2CCCCC2)cc1
 : -0.6%, i, 2.9e-09, ?, i
O/N=C/c1cccn1-c1ccc(O)cc1
 : 6.7%, ., ., -8.4%, .
OC(COc1ccc(OCc2ccccc2)cc1)CN1CCCCC1 (stereo not given)
 : 1.9%, i, 1.09e-08, ?, i
CCN(CC)CCCNC(=O)c1cc2c(-c3ccc(Cl)cc3)nn(C)c2s1
 : 2.1%, ., ., 5.9%, .
CN(C)c1ccc(CNC(=O)[C@@]2(C)C=C[C@@H](Cc3ccccc3)N2C)cc1
 : -0.6%, ., ., 4.1%, .
CC1CN(C(=O)N[C@@H](Cc2ccccc2)C(=O)O)CC(C)O1 (stereo not given in full)
 : -0.8%, i, 2.06e-08, -2.3%, i
c1ccc2c(c1)Cc1cc3ccccc3nc1-2
 : 0.0%, ., ., ?, .
CCCCCCCCCCCCCCCC(=O)NCCO
 : -2.8%, i, 2e-09, 6.1%&2.0%, i
CC(=O)c1cccc(NC(=O)c2ccncc2)c1
 : -1.5%, ., ., 0.8%, .
CCOC(=O)c1cc(C)[nH]c(=S)c1C#N
 : -0.2%, i, 1.33e-08, 4.1%[11.4 µM], i
Clc1ccc(C2CC(c3ccccc3)Nc3ncnn32)cc1 (stereo not given)
 : 0.0%, ., ., ?, .
CC(=O)Oc1ccc(C(=O)O)cc1OC(C)=O
 : -0.9%, i, 3.99e-08, ?, i
O=C(c1ccc(COc2ccc3c(c2)CCC3)o1)N1CCN(c2ccccc2)CC1
 : 0.1%, i, 1e-09, ?, i
COc1ccc(OC)c(NC(=O)CSc2nnc(Cc3cccn3C)n2-c2ccc(F)cc2)c1
 : 2.5%, ., ., 1.4%, .
Cc1cc(C)n2nc(C(=O)OCCOc3cccc(Br)c3)nc2n1
 : -0.9%, i, 1e-09, 5.3%, i
CCOCCCNC(=O)Cn1ncc2c(=O)oc3ccccc3c21
 : 3.5%, ., ., 7.1%, .
O=C(NCc1cccs1)NC1CCCCC1
 : 0.2%, i, 2.25e-08, -8.7%, i

Screening results (PubChem)
